CapD inh = blocks the Bacillus anthracis CapD enzyme | purified CapD enzyme, fluorescence intensity read-out; stronger effect = lower value; some hits fall short of the stated cut | z-score (no concentration beside the values) | hit rate 0.23% among 140,000;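 active means z-score under -4 in either of two replicates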;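 further: stock transfer was 100 nL into about 40 µL; score is relative to mean and spread of the plate; one replicate is shown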
AID504770 = growth inhibitors of E. coli YBA685 in a screen for V. cholerae RctB (chromosome II replication) inhibitors | E. coli YBA685 rctB-dependent plasmid, OD600 growth, 3 h; stronger effect = lower value | z-score (no concentration beside the values) | hit rate 0.27% among 130,000 | AID 504770;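 active means z-score under -2 on both plates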;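 further: wells of about 30 µL received 100 nL stock; score is relative to mean and SD of the test wells; the first replicate is given; strong numbers were not always called active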
* = called active by the depositor; . = not tested or not shown.

SMILES	AID504770	CapD inh
Cc1ccc(C2CCN(C(=S)Nc3ccccc3C)C2)cc1 (centres undefined)	-0.35	-0.73
N=c1oc2ccccc2cc1-c1nc(-c2cc3cc(Br)ccc3oc2=O)cs1	.	1
CN1CC2(C)CN(C(=O)c3ccccc3Cl)CC(C)(C1)C2	0.05	.
O=C1c2[nH]nc(-c3ccccc3O)c2C(c2ccccc2)N1Cc1ccco1 (centres undefined)	0.35	-0.22
O=C(C1CCCN(S(=O)(=O)c2ccccc2)C1)N1CCCc2ccccc21 (centres undefined)	-0.1	.
COc1ccc(-n2c(=S)[nH]c3cc(C(=O)NCCc4ccc(OC)c(OC)c4)ccc3c2=O)c(OC)c1	.	-1.1
CN(C)c1ccc(CN2CCN(CCOC(=O)NCc3csc4ccccc34)CC2)cc1	.	-0.88
CC1CCCC(NC(=O)c2ccc(C#N)cc2)C1C (centres undefined)	-1.9	0.12
S=C(NC(Cc1ccccc1)c1ccccc1)NC1CC2C=CC1C2 (centres undefined)	-0.3	0.075
CSc1nnc(SC)n1/N=C(/N)c1cccc(C(F)(F)F)c1	-0.55	-0.05
Cc1nnc(NC(=O)C2CCN(S(=O)(=O)c3ccc4c(c3)CCC4)CC2)o1	2	.
O=C(CSc1nc2cc(C(=O)NCC3CCCO3)ccc2c(=O)n1Cc1ccco1)Nc1ccccc1Cl (centres undefined)	.	-0.18
O=C(c1ccco1)N1CCN(S(=O)(=O)c2ccc3c(c2)Cc2cc(S(=O)(=O)N4CCN(C(=O)c5ccco5)CC4)ccc2-3)CC1	.	-0.3
Cc1sc2ncn(CC(=O)NCc3ccccn3)c(=O)c2c1S(=O)(=O)N1CCN(c2ncccn2)CC1	-3.7	1.4
CC(C)(C)C(=O)NCCSc1nnnn1-c1ccccc1	0.2	-0.77
CSc1ccc(S(=O)(=O)N2CCC(C(N)=O)CC2)cc1	-0.2	0.52
O=C(CCC(=O)N1CCc2cc(F)ccc21)NCc1cccc(C(F)(F)F)c1	.	-0.055
CCOC(=O)C1=C(C)NC2=C(C(=O)c3ccccc32)C1c1ccccc1OCc1ccccc1F (centres undefined)	.	-0.12
CCOC(=O)c1sc(NC(=O)c2cc(-c3ccc(OC)c(OC)c3)nc3ccccc23)nc1C	.	-0.76
O=S(=O)(c1ccc(Cl)c(Cl)c1)N1CCCCC1	-0.25	.
O=C(NNS(=O)(=O)c1ccc(F)cc1)c1sccc1-n1cccc1	.	-0.42
COc1ccc(C2CC(=O)Nc3c2cc(Br)c2ccccc32)cc1OC (centres undefined)	.	-0.16
C/C(N)=N/C(=S)Nc1ccc(Cl)cc1	0	0.9
Cc1ccc(COc2ccc(Br)cc2C=C2C(=O)NC(=S)NC2=O)cc1	.	-1.4
COc1ccc(NC(=O)C2CCN(c3nc(-c4ccc(OC)cc4)no3)CC2)cc1	-0.25	-0.085
CCN1CCc2c(sc(-n3cccc3)c2C(C)NC(=O)Nc2ccc(Br)c(C)c2)C1 (centres undefined)	-1	-0.94
Cc1cc(C)nc(SC(=O)OC(C)(C)C)n1	.	-1.1
COc1ccc(CNC(=O)c2cccs2)cc1OC	-0.95	0.81
COC(=O)c1ccc(CSc2nc3ccncc3[nH]2)cc1	0.45	-0.29
CC(C)c1nc2ccccc2c(=O)[nH]1	0	.
Cc1c(-c2nc3ncc(Br)cc3[nH]2)cc(C#N)n1C	0	.
Cc1ccc(S(=O)(=O)N2CCC(C)CC2)cc1C(N)=O	-1.1	.
CS(=O)(=O)N1CCCC(C(=O)Nc2ccccc2)C1 (centres undefined)	-0.1	-0.05
CN1CCN(S(=O)c2ccc3ccccc3c2)CC1 (centres undefined)	-0.75	-0.02
O=C1OCCC1Sc1nc2sc3c(c2c(=O)[nH]1)CCCC3 (centres undefined)	-1	1.1
NNC(=O)c1cc(NS(=O)(=O)c2cccs2)cc(NS(=O)(=O)c2cccs2)c1	-0.05	.
COc1ccc(C(=O)N2CCN(c3ncnc4c3nnn4-c3ccc(F)cc3)CC2)cc1OC	0.85	.
CCN(C#N)c1nc(OC)nc(N2CCOCC2)n1	0.2	-1.1
CCN(C(=O)c1ccc(N2CC3CC(C2)c2cccc(=O)n2C3)c(NC(=O)/C=C/c2ccccc2)c1)c1cccc(C)c1 (centres undefined)	.	-0.05
Cc1cccc(COC(=O)NCCc2c[nH]c3ccc(O)cc23)c1	.	-1.2

Three entries out of the list, sorted by molar mass, rising:
SMILES	AID504770	CapD inh
COc1ccc(C2CC(=O)Nc3c2cc(Br)c2ccccc32)cc1OC (centres undefined)	.	-0.16
NNC(=O)c1cc(NS(=O)(=O)c2cccs2)cc(NS(=O)(=O)c2cccs2)c1	-0.05	.
CCN(C(=O)c1ccc(N2CC3CC(C2)c2cccc(=O)n2C3)c(NC(=O)/C=C/c2ccccc2)c1)c1cccc(C)c1 (centres undefined)	.	-0.05

Carrying on.
SMILES	AID504770	CapD inh
O=C(c1ccc2c(c1)OCCO2)N1CCC(c2nc3ccccc3o2)CC1	0.2	.
NC(=NC(=O)CCn1c(=O)oc2ccccc21)c1ccc(Cl)cc1	0.95	-0.08
COc1cccc2cc(-c3nc(-c4ccc5ccccc5c4)cs3)c(=O)oc12	.	0.08
Cc1cccc(Cl)c1NC(=O)N1CCCN(c2ccc(C(F)(F)F)cn2)CC1	1.2	0.71
CC(C)OCCCNC(=O)c1ccc2c(=O)n(Cc3ccco3)c(SCC(=O)Nc3ccccc3Cl)nc2c1	.	0.08
Cc1cc(-n2c(=S)sc3c(=O)[nH]c(SCC(=O)Nc4nccs4)nc32)ccc1Cl	.	-0.4
CC(CNC(=O)c1cccc(Nc2nc3ccccc3n3cnnc23)c1)c1ccccc1 (centres undefined)	0.65	89
O=C(Cc1ccccc1)N1CCN(S(=O)(=O)c2ccc(Br)cc2)CC1	0.1	0.97
Cn1c(=S)n(CN2CCC(c3ccccc3)CC2)c2ccccc21	0.65	2.3
CC(OC(=O)C1CCN(S(=O)(=O)c2cccs2)CC1)C(N)=O (centres undefined)	0.25	.
CC(=O)Nc1ccc(C(F)(F)F)cc1Cl	.	-0.015
COc1cccc(-c2cn3c4c(=O)n(C)c(=O)n(C)c4nc3n2-c2cc(C(C)C)c(O)cc2C)c1	.	-0.085
CN(C)S(=O)(=O)c1ccc(SCCCn2c(=O)[nH]c3ccccc32)nc1	1.8	.
CSc1nnc(CNC(=O)N(c2ccccc2)c2ccccc2)n1C(C)C	-0.8	.
Cc1nc(CSc2nc3ccccc3c(=O)n2CCc2ccccc2)cs1	.	-0.79
CCCc1nc2c(sc3nc4c(cc32)COC(C)(C)C4)c(=O)o1	0.3	0.37
Cc1ccccc1-c1nnc(N(C(=O)C2CC2)C2CCCC2)s1	2	.
O=C(O)c1cc(N2CCOCC2)nc(N2CCOCC2)n1	.	0.095
O=S(=O)(Cc1ccccc1)NCc1ccco1	0.45	.
OCC1CCCN(C(=S)NCCc2ccccc2)C1 (centres undefined)	-0.55	0.25
CCOC(=O)c1cc2sccc2n1CC(=O)OCC(=O)NCc1ccco1	-0.3	.
O=C1CCCN2N=C(SCC(=O)Nc3ccccc3)SC2=N1	-1.1	-0.2
COc1cc2c(cc1OC)C(c1ccc(Cl)cc1)NC(=O)C2 (centres undefined)	.	-0.11
C=CCOC(=O)C1=C(C)NC(S)=C(C#N)C1c1cccnc1 (centres undefined)	.	-0.65
CC(=O)N[C@@H](Cc1ccccc1)C(=O)NN	-0.7	0.3
O=C1Nc2ccccc2C1Cc1ccccn1 (centres undefined)	-0.5	0.83
CCOC(=O)c1c(C)oc2c(F)c(F)c(F)c(F)c12	.	0.61
CCOC(=O)Cn1c2ccccc2c2ccccc21	0.1	3.9
COc1cc(Cl)c(S(=O)(=O)Nc2ccccn2)cc1Cl	-0.5	6.6
COCCNC(=O)c1ccc2c(=O)n(Cc3ccco3)c(SCc3ccc(F)cc3Cl)nc2c1	.	1.3
CCN(CC)c1nc(N2CCOCC2)nc(C)c1[N+](=O)[O-]	.	-0.66
CCOc1ccc(Br)cc1C1CC(=O)Nc2c1ccc(C)c2C (centres undefined)	-0.65	0.2
O=C(CC1SC(=Nc2ccccc2)NC1=O)Nc1ccccc1 (centres undefined)	0.55	0.28
COc1ccc(N2C(=S)SC3CS(=O)(=O)CC32C)cc1 (centres undefined)	0.2	90
Cc1ccccc1NC(=O)Nc1ccc(CN2CCCCC2)cc1	0.15	-0.15
CCc1ccc(-c2nc(-c3ccc(C)cc3)no2)cc1	-1.1	0.16
Cc1nn(-c2ccc(F)cc2)c2sc(C(=O)OCC(=O)N(C)C3CCS(=O)(=O)C3)cc12 (centres undefined)	1.1	.
Cc1[nH]n(-c2cccc(Cl)c2)c(=O)c1C=Nc1ccc(I)cc1	.	-0.99
COc1ccc(-c2cc(-c3ccc(C)cc3)nc(N3CCCCC3)n2)cc1	-0.3	5.8
CC(C)(CSc1n[nH]c(N)n1)NS(=O)(=O)c1ccc(Cl)cc1	0.15	.

2 of the compounds above, with values under each structure.
Fields: AID504770, CapD inh
CCc1ccc(-c2nc(-c3ccc(C)cc3)no2)cc1
  -1.1, 0.16
Cc1nn(-c2ccc(F)cc2)c2sc(C(=O)OCC(=O)N(C)C3CCS(=O)(=O)C3)cc12 (centres undefined)
  1.1, .

Further structures follow:
SMILES	AID504770	CapD inh
O=C(NC1CC1)C1C2C=CC3(O2)C1C(=O)N(C1CC1)C3C(=O)NC1CCCCC1 (centres undefined)	0.65	.
CCC(=O)Nc1c2c(nn1C(C)(C)C)CSC2	0.35	.
CC(=O)NC1(c2ccccc2)CCN(C(C)=O)CC1	1.8	.
CCn1nnc2cc(C(=O)Nc3ccc(N4CCCC4)cc3)ccc21	-0.3	.
CCOc1ccc(C2c3[nH]c4ccccc4c3CCN2C(=O)c2ccccc2)cc1 (centres undefined)	.	-0.36
COc1ccc(Nc2oc(COc3ccccc3F)nc2C#N)cc1	-0.9	-0.16
ON=C1CC2CCCC(C1)N2Cc1ccccc1	1.1	-0.69
CCOC(=O)/C(C#N)=C\C(C#N)=C(\N)N1CCN(c2ccc(OC)cc2)CC1	.	-2.4
COc1ccc2c(CN3C(=O)NC4(CCc5ccccc54)C3=O)cc(=O)oc2c1 (centres undefined)	-0.05	.
CCCCn1c(C(F)(F)F)nc2c(=O)oc3ccccc3c21	1.2	0.055
N#C/C(=C\c1ccoc1)S(=O)(=O)c1ccccc1	0.25	-0.42
O=C(CN1CCN(S(=O)(=O)c2ccc3c(c2)OCCO3)CC1)N(Cc1ccccc1)Cc1ccccc1	-0.3	.
Cc1sc(NC(=O)c2ccco2)c(C(c2ccccc2)N2CCN(C)CC2)c1C (centres undefined)	0.2	0.43
CC1CN(CC(=O)Nc2ncc(Cc3ccccc3F)s2)CC(C)O1 (centres undefined)	0.15	.
O=c1cccc2n1CC1CC(C2)N(c2nc(N3CCCCC3)nc(N3CCCCC3)n2)C1 (centres undefined)	-0.5	.
COC(=O)c1c(C)oc2ccc(N(C(C)=O)S(=O)(=O)c3ccc(C(C)(C)C)cc3)cc12	.	0.085
O=S(=O)(Nc1ccc2c(c1)OCCO2)c1cc(Cl)c(Cl)s1	.	0.04
O=C(COc1cccc(NC(=O)c2ccco2)c1)c1ccccc1	-0.6	-0.89
CC(=O)Nc1cccc(C(=O)CCC(=O)O)c1	-0.45	-0.55
COC(=O)c1c(C)oc(C)c1S(=O)(=O)N1CCCC1	-0.6	-0.88

Individual results from above:
Under AID504770, CCC(=O)Nc1c2c(nn1C(C)(C)C)CSC2 is entered as 0.35
Under AID504770, O=C(CN1CCN(S(=O)(=O)c2ccc3c(c2)OCCO3)CC1)N(Cc1ccccc1)Cc1ccccc1 is entered as -0.3
Under AID504770, ON=C1CC2CCCC(C1)N2Cc1ccccc1 is entered as 1.1
Under CapD inh, Cc1sc(NC(=O)c2ccco2)c(C(c2ccccc2)N2CCN(C)CC2)c1C (centres undefined) is entered as 0.43
Under AID504770, O=C(COc1cccc(NC(=O)c2ccco2)c1)c1ccccc1 is entered as -0.6
Under AID504770, CC1CN(CC(=O)Nc2ncc(Cc3ccccc3F)s2)CC(C)O1 (centres undefined) is entered as 0.15

Next part:
SMILES	AID504770	CapD inh
O=S(=O)(CS(=O)(=O)Sc1ccc(Cl)cc1)Sc1ccc(Cl)cc1	-3.5*	0.01
COc1cccc(C(=O)Nc2cccc(-c3ccc(N4CCN(C)CC4)nn3)c2)c1	-0.05	.
NC(=O)c1cc2cc(Br)ccc2oc1=Nc1cccc(C(F)(F)F)c1	.	0.29
COc1ccccc1NC(=O)c1c(C)[nH]c(=S)c(C#N)c1-c1ccc(C)o1	0.5	.
COc1ccc(NC(=O)CCN2CCCCC2)cc1	0.25	0.52
NC(=O)c1ncn([C@@H]2O[C@H](CO)[C@@H](O)[C@H]2O)c1O	.	0.085
O=C(Nc1ccc(-n2cnnn2)cc1)C1CCN(C(=O)/C=C/c2ccccc2)CC1	1.1	.
O=c1c2c(-c3cccs3)csc2ncn1/N=C/c1ccccc1F	-0.45	.
COc1ccc(NC(=O)c2ccc3ccccc3c2OC)cc1	-0.35	-0.04
N#CCN(CC#N)C(=O)c1sc2ccccc2c1Cl	1.4	0.34
Cc1cc(=O)oc2c1ccc1oc(C(=O)c3ccc(Cl)cc3)c(-c3ccccc3)c12	.	-0.28
CC(=O)N1CCN(C2c3cccc4cccc(c34)C2NS(=O)(=O)c2ccccc2)CC1 (centres undefined)	-0.15	.
CCOC(=O)c1nn(-c2ccc(C)cc2)c(=O)c2c(N)scc12	0.25	0.085
CC(=O)Nc1cccc(OCC(=O)N2CC(C)CC(C)C2)c1 (centres undefined)	-0.3	.
O=C(CO/N=C/c1ccccc1OC(F)F)N1CCN(S(=O)(=O)c2ccccc2)CC1	-0.4	.
Cc1ccc(-n2[nH]c(C)c(C=Nc3ccc(C(=O)N(C)C)cc3)c2=O)cc1C	.	0.045
Clc1ccc(-c2cnc(N3CCNCC3)nc2)cc1	.	7.6
CCOC(=O)c1ccc(NC(=O)/C=C/c2ccc(C)o2)cc1	0	10
